From PubChem BioAssay
StopGo RLuc: FMDV 2A StopGo reporter, Renilla signal | HEK cells with a luciferase reporter of 2A StopGo recoding | 0.32% of 120,000 active | Potency, µM (top dose mostly 57.5 µM), without a hit: at the top dose signal change, negative = less light; active means well fitted falling curve with a large enough effect; inconclusive means small, poorly fitted or top-dose-only effect; inactive means no such curve, though single readings can be large or run the other way; note: nearly all actives have a fitted effect of over 55% in size; overnight with compound
2A firefly: lowers the firefly signal of an FMDV 2A StopGo reporter; HEK cells with a luciferase reporter of 2A StopGo recoding; Potency, µM (highest dose often 57.5 µM), for inactives: top-dose signal change, negative = less light; 0.23% of 120,000 active; AID 1745856; active = well fitted falling curve with a large enough effect; inconclusive = small, poorly fitted or top-dose-only effect; inactive = no such curve, though single readings can be large or run the other way; note: nearly all actives have a fitted effect of over 60% in size; overnight with compound
* = called active by the depositor; ? = inconclusive; & = joins results of further samples; [ ] = dose if it differs, or a comment. % is set by controls: 0 for no effect and ±100 for the full control effect; potency is the fitted concentration of half-maximal effect. The list is partial; count on the stated rates, not on these rows.

compound | StopGo RLuc | 2A firefly
O=C(CSc1nnc(-c2cccc(S(=O)(=O)N3CCCCC3)c2)o1)c1ccccc1 | 5% | -3%
COc1ccc(NC(=O)CCN2CCN(c3cccc(Cl)c3)CC2)cc1 | -8% | -1%
Nc1ccc(Cl)cc1C(=O)c1ccccc1F | 50%&114%[activator] | 31%[activator]
COc1ccc(-n2ncc(C(=O)NCc3cccs3)c2C2CCN(C(=O)OC(C)(C)C)CC2)cc1 | 47%[activator] | -16%
COc1ccc(/C=C/c2nc(=O)c3ccccc3o2)cc1 | 57%[activator] | 154%[activator]
CC(C)=NNC(=O)COc1ccc(OCc2ccccc2)cc1 | 22% | 119%[activator]
Cc1cc(C)nc(NS(=O)(=O)c2ccc(NC(=O)c3ccccc3O)cc2)n1 | 12% | 13%
Cc1ccc(C)c(NC(=O)c2ccc3c(c2)NC(=O)C2CCCN32)c1 (configuration not stated) | 5% | 50%[activator]
CCN1CCCC1CNC(=O)C(C)C (configuration not stated) | 3% | -4%
CCC(C)NC(=O)CSc1nc(-c2ccccc2)cc(C(F)(F)F)n1 (configuration not stated) | 8% | 3%
Fc1cccc(-c2nc(-c3ccccc3)no2)c1 | 9% | 204%[activator]
C/C(=N\NC(=O)C(c1ccccc1)c1ccccc1)C(C)(C)C | 11% | 12%
CC(C)C(C)N(C)Cc1nnc(-c2ccc(Br)o2)o1 (configuration not stated) | 44%[activator] | 110%[activator]
CCOCCn1c(N2CCN(C)CC2)nc2c1c(=O)[nH]c(=O)n2C | 3% | 16%
Cn1c(CCNC(=O)c2cccc(F)c2)nc2cc(NC(=O)C3CCCO3)ccc21 (configuration not stated) | -13% | 19%
Cc1ccc(-c2ccnc(=S)[nH]2)cc1C | 20% | 0%
CC(=O)c1ccc(NC(=O)Cn2c(=O)nc(-c3ccccc3)c3ccccc32)cc1 | -5% | 3%
CC(=O)Nc1ccc(Nc2cc(C)nc3c(-c4ccc(C)cc4)c(C)nn23)cc1 | -19% | 1%
Cc1nc(SCC(=O)N(c2ccccc2)c2ccccc2)oc1C | 14% | 29%
CC(C)C(=O)Nc1ccc2nc(SCC(=O)N3CCOCC3)sc2c1 | 30%[activator] | 9%

Next results follow:
compound | StopGo RLuc | 2A firefly
CCOc1ccc2c(c1)[C@@H]1C=CC[C@@H]1[C@H](c1ccccc1Cl)N2 | 20% | 45%
COc1cccc(CNC(=O)Cn2ncn3c(cc4ccccc43)c2=O)c1 | 1% | 2%
NC(=O)C1CCN(C(=O)Cn2ccc3c(Cl)cccc32)CC1 | -6% | 1%
COc1cc(OC)c(NS(=O)(=O)c2ccc3c(c2)CCCN3C(C)=O)cc1Cl | 0% | -15%
Cc1ccc(C)c(NC(=O)c2cc3c(s2)CCC3)c1 | -4% | 0%
O=C(CSc1nnc(COc2ccccc2)o1)Nc1cc(C(F)(F)F)ccc1Cl | -9% | -10%
Cn1c(=O)c2c(ncn2CCC(=O)Nc2cccc(Br)c2)n(C)c1=O | 4% | 16%
Cc1ncc2n1-c1ccc(Cl)cc1C(c1ccccc1F)=NC2 | 36%[activator] | -2%[11.5 µM]
COc1cccc(NC(=O)Cn2nnc(C(=O)NCCc3ccccc3)c2N)c1 | 11% | 13%
Cn1cc(CC(=O)NCc2ccc(C(N)=O)cc2)c2ccccc21 | -2% | 5%
CC1CCCCN1S(=O)(=O)c1ccc(NC(=O)CN2C(=O)c3ccccc3S2(=O)=O)cc1 (configuration not stated) | -3% | 0%
O=C(COc1cccc(F)c1)NCCc1nnc2ccccn12 | 0% | 15%
COc1ccc(Cn2ccc3nc(C)c(C(=O)N4CCN(c5ccccc5OC)CC4)cc3c2=O)cc1 | -19% | -26%
O=C(CCSc1ccccc1)OCC(=O)c1ccc(Cl)cc1 | -3% | 6%
CC1CN(C2CCCCC2)CCC1=O (configuration not stated) | 35%[activator] | 0%
Cc1c(C)n(CCCN(C)C)c2ncn3nc(COc4ccc(C(C)(C)C)cc4)nc3c12 | -7% | 1%
Nc1nccnc1C(=O)NCc1ccc(F)cc1 | ? | ?
Cc1ccn2c(Nc3ccc4c(c3)OCCO4)c(-c3ccc(N(C)C)cc3)nc2c1 | 0% | 112%[activator]
CN(C)CCCNC(=S)NCCc1ccccc1 | 9% | 0%
O=C(O)c1ccc(OCCCOc2ccc(C(=O)O)cc2)cc1 | 0% | -2%[11.5 µM]

(listing goes on)
compound | StopGo RLuc | 2A firefly
Cc1ccc(-n2c(SCC(N)=O)nc3c([nH]c4ccccc43)c2=O)cc1 | 3% | 33%[activator]
CC(C)C(=O)Nc1nnc(S(=O)(=O)N2c3ccccc3CC2C)s1 (configuration not stated) | 5% | ?
COc1cccc(CCC(=O)Nc2nc(C)c(C)s2)c1OC | ? | 83%[activator]
CCc1cc(C(c2ccc(OC)c(OC)c2)N2CCN(CC)CC2)c(NC(=O)c2ccco2)s1 (configuration not stated) | -7% | -7%
CCOc1ccc(-n2nc3cc(C)c(NC(=O)CC)cc3n2)cc1 | -10% | -19%
O=C(c1ccc2c(c1)N(Cc1cccc(F)c1)C(=O)c1ccccc1S2)N1CCC2(CC1)OCCO2 | 105%[activator] | -19%
O=C(O)c1cc(NCc2ccc(-c3ccccc3)cc2)ccc1N1CCOCC1 | ? | ?
CC(=O)Nc1ccc(NC(=O)c2nnn(-c3ccc4noc(-c5ccc(Cl)cc5)c4c3)c2C)cc1 | -5% | 3%
CC(=O)N1CCc2c(sc3c2c(=O)n(-c2ccc(F)cc2)c(=O)n3Cc2cc(C)ccc2C)C1 | -7% | -18%
COc1ccc(NC(=O)c2nc3ccccc3nc2N2CCCCC2)cc1OC | 6% | 28%
CCCOC(=O)COc1ccc2c(=O)c(Oc3cc(C)c(Cl)c(C)c3)coc2c1 | 3% | 8%
Cc1cccc(OCCn2c(-c3ccc(Cl)cc3)nc3ccccc3c2=O)c1C | -10% | 20%
CCn1cc(C(=O)N2CCN(c3ccc(F)cc3)CC2)c(=O)c2cc(S(=O)(=O)N(C)C3CCCCC3)ccc21 | 2% | -3%
Cc1ccc(CCSc2cc(C(C)(C)C)c(F)c(C(C)(C)C)c2)cn1 | 11% | 10%
CCC(C(=O)NC1CCCCC1)n1c(SCc2ccc(F)cc2)nc2ccncc21 (configuration not stated) | -8% | -6%
O=S(=O)(NCCc1csc2nc(-c3ccccc3)nn12)c1cc(F)ccc1F | 157%[activator] | -7%
CC1=C(C(=O)Nc2ccc(C)cc2C)C(c2cccs2)n2nc(SCc3ccc(Cl)cc3)nc2N1 (configuration not stated) | -11% | -17%
Cc1cccc(NC(=O)CSc2nc3c(oc4ccccc43)c(=O)n2Cc2ccco2)c1 | -5% | -8%
CCOC(=O)c1cccc(NC(=O)Cn2c(=O)nc(-c3ccccc3F)c3cc(Cl)ccc32)c1 | -9% | -16%
CC(OC(=O)c1nn(-c2ccccc2)c(=O)c2ccccc12)C(=O)Nc1ccc(N2CCOCC2)cc1 (configuration not stated) | -9% | 1%

Later entries:
compound | StopGo RLuc | 2A firefly
Cc1cccc(C(=O)Nc2ccc(OCc3cc(=O)n4ccsc4n3)cc2)c1 | -3% | -10%
CCC(C(=O)Nc1cccc(-c2cn3cccnc3n2)c1)c1ccccc1 (configuration not stated) | 21% | 12%
CCCCCCCCNS(=O)(=O)CC1NCc2cc(F)ccc21 (configuration not stated) | 12% | 16%
COc1ccc(-c2nc3ccccc3s2)cc1NC(=O)c1ccccc1F | -3% | 54%[activator]
COc1ccc(OC)c(NC(=O)CCCOc2cc(=O)n(C)c3ccccc23)c1 | 53%[activator] | 42%[activator]
CCc1ccc(NC(=O)CSc2nnc(-c3nonc3NC(C)=O)n2-c2ccccc2)cc1 | 26% | -12%
COc1ccccc1-c1cc(NC(=O)COc2ccccc2Cl)n(-c2ccccc2)n1 | -10% | 1%
CCc1ccc(C(=O)CC2(O)C(=O)N(Cc3ccc(C)cc3)c3ccccc32)cc1 (configuration not stated) | -5% | -6%
O=C(O)CCNS(=O)(=O)c1ccc(Cl)c(Cl)c1 | 9% | -8%
COC(=O)c1cc2n(n1)CC(C)(C(=O)NC1CCCCCC1)N(CCc1cccs1)C2=O (configuration not stated) | 17% | -3%
CCCCN(C(=O)C(=O)c1c(C)[nH]c2ccccc12)c1ccccc1 | 46%[activator] | 0%
Cc1ccc(-n2nnc(C(=O)NCCc3ccccc3)c2C2CC2)cc1 | 22% | 0%
CCCNC(=O)c1cc(-c2ccc(OC)cc2OC)nc2ccccc12 | 13% | 0%
COc1ccc(CCNC(=O)CS(=O)Cc2nc(-c3ccc(C)cc3)oc2C)c(OC)c1 (configuration not stated) | 22%&4% | 11%&-7%
N#Cc1cc([N+](=O)[O-])ccc1NC(=O)c1cccn(Cc2cccc(F)c2)c1=O | -5% | 26%
CCn1cc(CNC(=O)c2cc(-c3ccc(C)c(C)c3)nc3ccccc23)c(C)n1 | 6% | ?
Cn1c(N2CCCCCC2)nc2c1c(=O)n(Cc1ccccc1)c(=O)n2C | -14% | -19%
Cc1nn(C(C)(C)C)c(OC(=O)c2c(F)cccc2F)c1Sc1ccccc1 | -8% | 1%
CCn1c(C(=O)NCc2ccc(OC(C)C)cc2)cc2oc3ccccc3c21 | ? | -33%
COc1cccc(-c2noc(CCCC(=O)NCc3ccco3)n2)c1 | -1% | 21%

The results go on.
compound | StopGo RLuc | 2A firefly
CCOc1ccc(N(C(=O)c2ccco2)S(=O)(=O)c2ccc3c(c2)oc(=O)n3C)cc1 | 131%[activator] | 61%[activator]
Cc1cccc(N2CCN(C(=O)Cc3c(C(=O)O)c(C)cn3C)CC2C)c1 (configuration not stated) | -12% | -18%
CCN(CC)CCCNc1oc(-c2ccccc2)nc1C#N | 1% | 2%
Cc1oc(-c2ccccc2)nc1CS(=O)CC(=O)N1CCc2ccccc21 (configuration not stated) | 18% | -1%
CCN(C(=O)Cn1ncc2c1-c1cc(C)ccc1OC2)c1cc(Cl)ccc1OC | -11% | -22%
CCn1ccc2c(OCC(=O)NCc3ccc(C)cc3)cccc2c1=O | 30%[activator] | 8%
O=C(CSc1ncnc2ccccc12)Nc1ccc(F)cc1F | -5% | 28%
Cc1cccc(C(=O)Nc2nnc(SCc3cc(=O)n4cccc(C)c4n3)s2)c1 | -2% | -19%
O=C(CNc1ccccc1OC(F)(F)F)N1CCNC1=O | -13% | 2%
CCCc1ccc(C(=O)COC(=O)CNC(=O)c2ccc(C)cc2)cc1 | 3%[1.06 µM] | -14%
CC(=O)Oc1ccc2c(C)c(-c3ccccc3)c(=O)oc2c1 | 6% | 0%
Cc1oc(-c2ccc(C(=O)NCc3cccnc3)cc2)nc1CS(=O)(=O)c1ccccc1 | ? | ?
NC(=O)c1ccc(CN(C2CC2)S(=O)(=O)c2cccc3nsnc23)cc1 | 1% | -7%
COC(=O)c1ccc(NC(=O)c2cc(=O)c3cc(C)ccc3o2)cc1 | -7% | -1%
Cc1nn(C)c(C)c1CCC(=O)Nc1nc(C(C)C)cs1 | ? | -28%
CC(=O)C1=C(OC(=O)c2ccccc2)c2ccccc2S(=O)(=O)N1C(C)C | 23% | 36%[activator]
COc1ccc(C(=O)N(Cc2ccco2)Cc2ccccc2F)cc1Cl | 132%[activator] | -8%
COc1ccc2c(c1)C=C(C(=O)Nc1ccc3ccc(=O)oc3c1)C=CO2 | -6% | 9%
CC1=C(C(=O)Nc2ccccc2)C(c2cccnc2)n2nc(SCc3ccccc3F)nc2N1 (configuration not stated) | -12% | -13%
CCCn1nc(C(=O)NC(C)c2ccco2)c2ccccc2c1=O (configuration not stated) | 29% | 18%

A draw from above in order of heavy-atom count, high to low:
compound | StopGo RLuc | 2A firefly
CC1CCCCN1S(=O)(=O)c1ccc(NC(=O)CN2C(=O)c3ccccc3S2(=O)=O)cc1 (configuration not stated) | -3% | 0%
Cn1c(CCNC(=O)c2cccc(F)c2)nc2cc(NC(=O)C3CCCO3)ccc21 (configuration not stated) | -13% | 19%
O=C(O)c1cc(NCc2ccc(-c3ccccc3)cc2)ccc1N1CCOCC1 | ? | ?

Random excerpt: five compounds from above, in no set order.
compound | StopGo RLuc | 2A firefly
CC1=C(C(=O)Nc2ccccc2)C(c2cccnc2)n2nc(SCc3ccccc3F)nc2N1 (configuration not stated) | -12% | -13%
COc1ccc(CCNC(=O)CS(=O)Cc2nc(-c3ccc(C)cc3)oc2C)c(OC)c1 (configuration not stated) | 22%&4% | 11%&-7%
COc1cccc(CNC(=O)Cn2ncn3c(cc4ccccc43)c2=O)c1 | 1% | 2%
O=C(O)CCNS(=O)(=O)c1ccc(Cl)c(Cl)c1 | 9% | -8%
Cc1ccc(C)c(NC(=O)c2cc3c(s2)CCC3)c1 | -4% | 0%

Other records.
compound | StopGo RLuc | 2A firefly
O=C(Nc1ccccc1F)Nc1c(NC2CCCC2)c2ccccc2oc1=O | -5% | 3%
Cn1ccnc1SCC(=O)Nc1cccc(Br)c1 | 16% | 161%[activator]
Cc1c(Cl)cccc1NS(=O)(=O)c1ccc(NS(=O)(=O)c2ccc3c(c2)OCCO3)cc1 | 177%[activator] | -11%
COc1ccc2c(c1)Cc1sc(NC(=O)c3cccc(Br)c3)nc1-2 | -10% | 16%
CCN(CCCNC(=O)Cn1ncc2c([nH]c3ccc(C)cc32)c1=O)c1cccc(C)c1 | 3% | -3%
FC(F)(F)c1nc2ccccc2n1Cc1nnc2n1N=C(c1ccc(Cl)cc1)CS2 | -6% | -4%
CSc1nc2c(c(=O)n(C)c(=O)n2C)n1Cc1ccc(Cl)cc1 | 0% | 2%
COc1ccc2cc(C(=O)Nc3ccc(NC(=O)Nc4ccccc4)cc3)c(C)nc2c1 | 13% | 0%
CC(Sc1nnc(N2CCOCC2)n1-c1cccc(F)c1)c1nnc(-c2cccs2)o1 (configuration not stated) | -9% | 7%
COc1cn(CC(=O)Nc2ccc(C)cc2)c(CN2CCN(C(C)=O)CC2)cc1=O | 33%[activator] | 5%
